# NPYLR7 agonist – agonists of mosquito NPYLR7 receptor, primary screen, cell-based, Aedes aegypti, calcium fluorescence, mosquito biting behavior | Aedes aegypti neuropeptide Y-like receptor 7 (NPYLR7) | HEK293T NPYLR7/Galpha15, GCaMP6s calcium fluorescence | activation, % at 10 µM | 0.15% of 270,000 active; in the data active means activation above about 40%;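 further: 0% = vehicle and 100% = reference agonist at the receptor; some compounds past the cut are filed as inactive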
# NPYLR7 agonist max-min – second read-out of NPYLR7 agonist, no call of its own (marks repeat the call); activation, %; measured here: Max-Min RFU normalised activation; some inactives read as strong as hits;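 span of the calcium signal over five minutes; 0% = vehicle and 100% = native peptide agonist; compound fluorescence can raise it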
# Starred values were filed as active, the others as inactive; & = joins results of further samples.
# Below each SMILES – NPYLR7 agonist	NPYLR7 agonist max-min
- O=C(Nc1ccccc1)C(=O)N1CCC(c2[nH]ncc2-c2ccccc2)CC1
 : -2	19
- CCN(CC)C(=O)Oc1ccc2c(ccn2Cc2ccc(I)cc2)c1-c1ccc(OC)c(OC)c1
 : 9	1
- CCC(C(=O)NCc1cccnc1)n1c(=O)n(Cc2ccccc2)c(=O)c2ccccc21 (stereo not drawn)
 : 3	17
- CCCCN(Cc1cccn1Cc1ccc(Br)cc1)C(=O)CN(CCCOC)C(=O)c1cccc(Br)c1
 : -4	-3
- Cc1noc(C)c1S(=O)(=O)N1CCC(C(=O)O)CC1
 : 7	2
- COc1ccc(NC(=O)C2CC(=O)N(N(C)c3ccccc3)C2)cc1Cl (stereo not drawn)
 : -9	-17
- CCOC(=O)N1CCN(C(=O)C2CCC(=O)N(CCCc3ccccc3)C2)CC1 (stereo not drawn)
 : 0&4	-4&3
- COc1ccc2c(c1)C1(SCCN1C(=O)Nc1ccc(F)cc1)C(=O)N2Cc1cccc(C(F)(F)F)c1 (stereo not drawn)
 : -6	5
- Cc1[nH]c2ccccc2c1S(=O)(=O)CCNC(=O)NCCc1ccccc1
 : 1	2
- COc1cc(=O)n(-c2ccccc2)nc1C(=O)Nc1nc2ccc(C)cc2s1
 : 2	1
- COc1cc(C2Nc3ccccc3C(=O)N2c2ccccc2)cc(O)c1O (stereo not drawn)
 : -2	-4
- Cc1ccc(C)c(C2CN(S(=O)(=O)CCCC#N)C(C)CO2)c1 (stereo not drawn)
 : 5	6
- O=C(Nc1ccccc1)c1ccc(Cl)c(S(=O)(=O)Nc2ccccn2)c1
 : -15	-21
- CCCCc1nc(N2CCCN(C(=O)NC3CCCCC3)CC2)c2c(-c3ccc4ccccc4c3)noc2n1
 : 18	4
- OCc1ccc(-c2nccn2CCC2=CCCCC2)o1
 : -1	-8
- N#Cc1ccsc1NC(=O)CSc1ncn[nH]1
 : -3	-4
- Cc1cc(C)n(C2CCN(Cc3c(CO)cnc(C)c3O)C2)n1 (stereo not drawn)
 : 0	-6
- CN(CC1Cc2ccccc2O1)C(=O)c1ccc(=O)n(C)n1 (stereo not drawn)
 : 31	14
- Cc1noc2nc(C3CC3)cc(C(=O)NNC(=O)c3cccc(O)c3)c12
 : -9	1
- Cc1ccc(-c2nnc(SCC(=O)N(C)Cc3ccc(N(C)C)cc3)o2)cc1C
 : 5	1
- COc1ccc(OC)c(-c2cc(Cl)c3c(c2)CC(CNC(=O)CSc2ccccn2)O3)c1 (stereo not drawn)
 : 17	4
- Cc1nc(SCC(=O)Nc2cc(C(F)(F)F)ccc2Cl)c2c(=O)n(C)c(=O)n(C)c2n1
 : 10	15
- Cc1nn(-c2ccccc2)c2c1C(c1ccncc1)N1N=NN(c3ccccc3)C1=N2 (stereo not drawn)
 : -2	-3
- CCCCNC(=O)COC(=O)c1ccc(Cl)c([N+](=O)[O-])c1
 : -2	-7
- CCc1cc(CN2CC[C@@H](c3ccc4ccccc4c3)[C@H](O)C2)on1
 : -1	-2
- C=CCC(C)(C)CN1CCC(C(=O)N2CCCC2)CC1
 : 10	13
- CN(Cc1ccco1)C(=O)c1nn(C)c2c1CC(NCc1nc3ccccc3s1)CC2 (stereo not drawn)
 : -3	-7
- COc1cccc(C(=O)N(Cc2nccn2Cc2ccc(Cl)c(Cl)c2)C2CC2)c1
 : -1	4
- CCN(CC)S(=O)(=O)NC(CS(C)(=O)=O)c1ccccc1 (stereo not drawn)
 : 2	1
- COc1cccc(C(=O)N2CCN(Cc3cnn(C)c3C3CC3)CC2)c1
 : 2	0
- CC(C)Oc1ccc(S(=O)(=O)N2CCOCC2)cc1NC(=O)CN1CCNC(=O)C1
 : 2	1
- O=C(C1CCC(CNc2c(N3CCCCC3)c(=O)c2=O)CC1)N1CCC(N2CCCCC2)CC1 (stereo not drawn)
 : 6	4
- CCOC(=O)c1cc(-c2ccc(N3CCN(C(=O)c4ccc(NC(C)=O)cc4)CC3)cc2)n(-c2ccccc2OC)n1
 : 4	0
- CCCCN(CC(=O)N1c2ccccc2-n2cccc2C1c1ccco1)C(=O)c1ccc(C(C)(C)C)cc1 (stereo not drawn)
 : -3	1
- Cc1ccc(NC(=O)C2(C)CCN2C(=O)CC(c2ccccc2)c2ccccc2)cc1 (stereo not drawn)
 : 10	8
- CCc1nccn1-c1cc(C)nc2c(-c3ccccc3Cl)c(C)nn12
 : 7	13
- CN(C(=O)N1CCC(C(=O)NC(c2ccc(F)cc2)c2ccccn2)CC1)c1ccccc1 (stereo not drawn)
 : -4	-13
- CC(C)(C)OC(=O)CNC(=O)Nc1nccs1
 : 1	-8
- CS(=O)(=O)C(C#N)=Cc1ccc(F)cc1
 : 9	13
- COc1cncc(C(N)=N/N=C(\C)c2ccncc2)n1
 : 6	6
- COc1cccc(CN2CCN(c3ncccc3C)CC2)c1O
 : -5	-6
- CCOC(=O)c1ccc(NC(=O)C2CC(=O)N(C)C(=Nc3cccc(F)c3)S2)cc1 (stereo not drawn)
 : -3	-4
- Cc1ccc(-c2nc(N)c3c4c(sc3n2)CCCC4)cc1
 : 15	21
- CCOC(=O)c1cc(C#N)c(N2CCN(Cc3cc(=O)[nH]c(C4CC4)n3)CC2)nc1C(F)(F)F
 : 2	3
- O=C(NCc1c(F)cccc1F)c1cncn1-c1cccc(-c2cccc3c2sc2ccccc23)c1
 : 3	0
- Cc1cc(CNCCCn2ccnc2)c(C)n1-c1ccc2c(c1)OCO2
 : -1	2
- Cc1ccc(F)cc1-n1c(Cc2ccncc2)n[nH]c1=O
 : 7	1
- N#CCC(=O)NN
 : -25	-35
- O=C(c1cccs1)N(Cc1cccc(Cl)c1)CC1CC(c2ccccc2Cl)=NO1 (stereo not drawn)
 : 7	18
- CCc1nc2n(n1)C(=O)C(C(c1ccc([N+](=O)[O-])cc1)N1CCN(Cc3ccccc3)CC1)S2 (stereo not drawn)
 : -5	-9
- Clc1cnccc1NCc1ccccc1CN1CCCCC1
 : -2	-2
- CCOc1ccc(C(=O)Nc2c(N)nc(SC(CC)C(=O)OC)[nH]c2=O)cc1 (stereo not drawn)
 : -1	-1
- CCc1nc(C)sc1CNc1ncc(F)c(N2CCOCC2)n1
 : 1	-3
- O=C(NCc1ccccn1)c1cccc(OC2CCN(Cc3ccsc3)CC2)c1
 : 2	-1
- CCn1c(SCc2ccc(C(=O)N3CCN(c4ccccc4F)CC3)cc2)nnc1-c1ccccc1[N+](=O)[O-]
 : 16	24
- Cc1nn(CC(=O)c2cc(C)n(CC(F)(F)F)c2C)c(=O)c(C#N)c1C
 : -4	-9
- CCOC(=O)c1cc(C)nn1C1CCN(C(=O)c2cc(F)ccc2C)CC1
 : -1	-4
- CCC(=O)N(Cc1csc(COc2cccc(Cl)c2)n1)C1CC1
 : 34	33
- CCOC(=O)c1nn(-c2ccc(OC)cc2)c(=O)c2c(NC(=O)CCCCl)scc12
 : 5	3
- COCc1c(C(=O)Nc2c(C)cccc2C)oc2ccccc12
 : 3	0

# Reprinted at random: 5 records from the list
# Below each SMILES – NPYLR7 agonist	NPYLR7 agonist max-min
- COc1ccc(OC)c(-c2cc(Cl)c3c(c2)CC(CNC(=O)CSc2ccccn2)O3)c1 (stereo not drawn)
 : 17	4
- CCOC(=O)c1ccc(NC(=O)C2CC(=O)N(C)C(=Nc3cccc(F)c3)S2)cc1 (stereo not drawn)
 : -3	-4
- Cc1cc(C)n(C2CCN(Cc3c(CO)cnc(C)c3O)C2)n1 (stereo not drawn)
 : 0	-6
- Cc1nn(-c2ccccc2)c2c1C(c1ccncc1)N1N=NN(c3ccccc3)C1=N2 (stereo not drawn)
 : -2	-3
- CS(=O)(=O)C(C#N)=Cc1ccc(F)cc1
 : 9	13

# Other compounds.
# Below each SMILES – NPYLR7 agonist	NPYLR7 agonist max-min
- Cc1cc2c(cc1NC(=O)COCC(=O)O)OCO2
 : -5	-9
- Cc1csc(CNC(=O)c2cc(Cl)c(Cl)n2C)n1
 : 2	0
- CC(C)(C)NC[C@H](O)COc1ccccc1C1CCCC1
 : 1	2
- C=C1OC2(O)c3ccccc3C(O)(O)C23C1=C(O)C(=O)N3CCCCCC (stereo not drawn)
 : 0	-1
- CN(Cc1cccnc1)C(=O)c1cc(COc2ccc(F)cc2F)[nH]n1
 : 4	1
- COc1cccc(CO[C@]2(C(=O)NCCN3CCOCC3)CC(OCc3ccccc3)[C@@H]3OC(C)(C)O[C@@H]3C2)c1 (stereo partly drawn)
 : 5	15
- CCOC(=O)c1nn(-c2ccc(C)cc2)c(=O)cc1OCC(=O)N1CCN(c2ccccc2)CC1
 : 5	2
- CCOc1cccc(CNC(=O)NC2CCN(C(=O)C(CC)CC)CC2)c1
 : 9	3
- CC[C@H](/C=C/C(C)C1CCC2C3CCC4=CC(=O)CC[C@]4(C)C3CC[C@]12C)C(C)C (stereo partly drawn)
 : -12	-16
- CC(C)=CC(=O)N1CCN(c2nccc(-c3ccc(N4CCOCC4)cc3)n2)CC1
 : 3	-2
- Cn1c2c(c(=O)n(C)c1=O)C(O)(c1ccc(Br)cc1)N=C1SC=CN1C2 (stereo not drawn)
 : -4	-9
- COc1ccc(NCC2(c3ccnc(-c4cccc(O)c4)c3)CC2)cc1OC
 : -14	-15
- CCOC(=O)C1C(=O)C=C(c2ccco2)CC1c1ccc(OC)c(OC)c1 (stereo not drawn)
 : 11	14
- Cc1ccc(NC(=O)Cn2c(O)c(N=NC(=O)c3ccncc3)c3ccccc32)cc1
 : -2	-8
- Cc1cc(-c2cc(C(=O)Nc3ccccc3OC(F)F)c3cnn(C(C)C)c3n2)c(C)o1
 : 7	15
- Cc1c(O)c(=O)n(-c2ccccc2)n1C
 : -3	-6
- Cc1ccc(F)c(CC(=O)N2CCOC(COCc3ccccc3)C2)c1F (stereo not drawn)
 : 12	3
- CC1(C)CNC(=O)c2nc(C3(COc4ccccc4)CC3)[nH]c2C1
 : 5	8
- O=C1N=c2c(Cl)cc(Cl)cc2=C1N=Nc1c(O)[nH]c2c(Cl)cc(Cl)cc12
 : 2	1
- CC(C(=O)N1CCOCC1)N(C)Cc1csc(Br)c1 (stereo not drawn)
 : 4	-19
- COC(=O)C1=C(C)N=c2s/c(=C\c3ccccc3Cl)c(=O)n2C1c1ccc(OC(C)=O)cc1 (stereo not drawn)
 : -11	-16
- CC(C(=O)Nc1ccc2c(c1)OCO2)n1cc(S(=O)(=O)N2CCCC2)ccc1=O (stereo not drawn)
 : -1	-4
- CCC1CN(C(=O)Cc2nc3nc(C)cc(C)n3n2)CCN1 (stereo not drawn)
 : 2	1
- CC(C)c1cc(CN(C)C(=O)CC2NC(=O)c3ccccc32)on1 (stereo not drawn)
 : 3	3
- Cc1ccnc(SCCCn2c(N3CCCC(C)C3)nc3c2c(=O)[nH]c(=O)n3C)n1 (stereo not drawn)
 : 8	7
- Cc1ccc(C2c3ccccc3CCN2C(=O)c2cc(Cl)cc(Cl)c2)cc1 (stereo not drawn)
 : 1	9
- Cc1nc2c(c(N3CCCCC3)n1)CN(C(=O)Nc1c(C(C)C)cccc1C(C)C)CC2
 : 6	0
- O=S(=O)(Nc1ccc(F)c(F)c1F)c1ccc(S(=O)(=O)N2CCCC2)cc1
 : 6&0	4&4
- O=C(c1ccc2c(c1)OCO2)C1CCCN(Cc2cccn2-c2ccccn2)C1 (stereo not drawn)
 : 6	3
- CC(O)CNS(=O)(=O)c1ccc(C(F)(F)F)cc1 (stereo not drawn)
 : -3	0
- CC(C)CCCC(C)Nc1ncnc2sccc12 (stereo not drawn)
 : 17	12
- CCc1c(C)nn(-c2ccc(C(=O)N3CCC(O)(c4ccccc4)CC3)cc2)c1C
 : -5	-12
- COc1cc([N+](=O)[O-])cc2sc(N)nc12
 : 2	15
- CN(C)CCN(Cc1c(-c2ccccc2)noc1N1CCc2ccccc2C1)C(=O)c1cccc(F)c1
 : -3	7
- CN(C)S(=O)(=O)c1ccc(C(=O)NCCn2ncc3c(=O)n(Cc4ccccc4)cnc32)cc1
 : -2	-6
- CC(C)c1ccc(CNC(=O)CCCCNS(=O)(=O)c2ccccc2)cc1
 : 1	8
- CCn1ccnc1CN(C)C1CCCN(CCCc2ccccc2)C1 (stereo not drawn)
 : 2	-2
- COc1ccc2nc(NC(C)=O)sc2c1
 : 11	8
- Cc1cc(C)n(-c2nc(C)c(C)c(=O)n2CC(=O)Nc2ccc(C(N)=O)cc2)n1
 : -5	0
- CC(Cc1ccc2c(c1)OCO2)c1nccn1CCc1n[nH]c(=O)[nH]1 (stereo not drawn)
 : 18	7
- O=[N+]([O-])c1ccc(Cl)c(C2c3cccn3CCCN2Cc2ccncc2)c1 (stereo not drawn)
 : 0	-4
- O=C(c1ccc(-c2cccnc2)nc1)N1CCC(Oc2cccnc2)CC1
 : 10	10
- Cc1ccc(-c2cc(NC(=O)c3cc(Cl)cc(Cl)c3)n(-c3ccccc3)n2)cc1
 : 5	-3
- C#Cc1cccc(NCC(=O)N2CCOC(C)C2)c1 (stereo not drawn)
 : 6	3
- O=C(NCCOc1ccc(Cl)cc1)N1CCN(S(=O)(=O)c2ccccc2)CC1
 : 1	3
- CCCOC(=O)C1=C(C)N(CC)C(=O)NC1c1ccc([N+](=O)[O-])cc1 (stereo not drawn)
 : -6	-11
- COc1ccc(S(=O)(=O)N2CCN(C(=O)CCl)CC2)cc1
 : -6	-7
- COc1cc(CNc2nn[nH]n2)ccc1OCc1ccc(Cl)c(Cl)c1
 : -14	-16
- CN1CCN(C(=O)c2coc(CN(Cc3ccc4c(c3)OCO4)Cc3ccccc3Cl)n2)CC1
 : 16	21
- COCCN=c1c([N+](=O)[O-])nn(-c2ccccc2)n1O
 : -10	-18

# A stretch from the list above, for reference:
# Below each SMILES – NPYLR7 agonist	NPYLR7 agonist max-min
- O=C(Nc1ccccc1)C(=O)N1CCC(c2[nH]ncc2-c2ccccc2)CC1
 : -2	19
- CCN(CC)C(=O)Oc1ccc2c(ccn2Cc2ccc(I)cc2)c1-c1ccc(OC)c(OC)c1
 : 9	1
- CCC(C(=O)NCc1cccnc1)n1c(=O)n(Cc2ccccc2)c(=O)c2ccccc21 (stereo not drawn)
 : 3	17
- CCCCN(Cc1cccn1Cc1ccc(Br)cc1)C(=O)CN(CCCOC)C(=O)c1cccc(Br)c1
 : -4	-3

# Screening data as filed in PubChem.

# Not all compounds are listed; count on the stated rates, not on these rows.
